VACV Venus inh: inhibitors of vaccinia virus (Venus reporter) | Vaccinia virus Venus reporter expression, fluorescence | Potency, µM (titrated, usually from 36.5 µM), for the others: at the highest dose activity change, negative = inhibition, usual class: inhibitors | 330,000 compounds, 0.46% hits; active means well fitted inhibition curve with a large enough effect; inconclusive means small, poorly fitted or top-dose-only effect; inactive means no such curve, though single readings can be large or run the other way; tested in A549 cells; note: nearly all actives have a fitted effect of over 30% in size; inactives centre near -10
VACV mCherry inh: vaccinia inhibition (mCherry reporter) | Vaccinia virus mCherry reporter infection, fluorescence; about a quarter of the inactives have no number | Potency, µM (top dose mostly 36.5 µM), for the others: at the top dose activity change, negative = inhibition, most hits filed as inhibitors | 310,000 compounds, 0.63% hits; active = well fitted inhibition curve with a large enough effect; inconclusive = small, poorly fitted or top-dose-only effect; inactive = no such curve, though single readings can be large or run the other way; tested in A549 cells; note: nearly all actives have a fitted effect of over 35% in size; inactives centre near -10
* marks the source's active call; other numbers are inactive results; i = inactive; ? = inconclusive; . = not tested or not shown; [ ] = another dose, or the depositor's remark. % is set by controls: 0 for no effect and ±100 for the full control effect; potency is the fitted concentration of half-maximal effect.

SMILES | VACV Venus inh | VACV mCherry inh
O=C(c1ccc(Cl)cc1)c1cccc(O)c1 | -9.9% | i
CC1=C(C(=O)OCc2ccccc2)C(/C=C/c2ccccc2)NC(=S)N1 (stereo unspecified) | ? | -20.9%
COc1cccc(OC)c1C(=O)Nc1sc2c(c1C(N)=O)CCCC2 | -15.7% | -17.8%
COc1ccc(C)cc1Nc1cc(C)nc2nc(C)nn12 | -24.5% | -27.7%
CN(C(=O)COC(=O)c1cc(=O)[nH]c2ccccc12)c1c(N)n(Cc2ccccc2)c(=O)[nH]c1=O | -6.8% | -7.2%
COc1ccc(N(CC(=O)Nc2ccccc2C(=O)N2CCCC2)S(=O)(=O)c2ccccc2)cc1 | -18.0% | -16.3%
CCCCOC(=O)c1ccc(NC(=S)NC(=O)c2ccco2)cc1 | -3.5% | -23.3%
CC(=O)Nc1ccc(NC(=O)CSc2ccc([N+](=O)[O-])cn2)cc1 | -6.5% | -0.4%
CC(=O)N1CC(C)Sc2ccc(S(=O)(=O)NC(C)c3ccccc3)cc21 (stereo unspecified) | -6.2%[7.34 µM] | -8.1%[7.34 µM]
CC(=O)N1CCc2cc(Br)cc(S(=O)(=O)N3CCN(c4ccccn4)CC3)c21 | 3.9% | -6.9%
COc1ccccc1OCC(=O)NNC(=O)Nc1ccccc1 | -16.4% | -11.0%
O=C(CN1CCN(C(=O)c2cccc(S(=O)(=O)N3CCCC3)c2)CC1)Nc1ccc(F)cc1 | -14.2% | i
COc1ccc(NC(=O)NC(C)c2ccc3c(c2)OCO3)c(OC)c1 (stereo unspecified) | 1.8% | -8.2%
CC(C)NC(=S)N/N=C/c1ccc(C(C)(C)C)cc1 | -17.9% | -11.9%
O=C(COc1ccccc1)Nc1cccc2c1CCCC2 | -22.0% | .
C/C(CC(=O)Nc1c(C)cc(C)cc1C)=N\NC(=O)Cc1ccccc1 | -18.6% | -2.9%
COc1cc(-c2nc3cc(C)ccn3c2NC2CCCCC2)ccc1-c1ccc(C(C)=O)cc1 | ? | -16.7%
Brc1ccccc1-c1nnc2sc(Cc3ccccc3)nn12 | -7.2% | -17.8%
N/C(=N\OC(=O)COc1cc(Cl)c(Cl)cc1Cl)c1ccccn1 | -6.3% | i
COc1cc(=O)n2c(c1C(=O)NCc1ccco1)CCN(C(=O)c1cccnc1SC)CC2 | 1.8% | -3.8%
O=C1CC(c2ccsc2)Sc2ccccc2N1 (stereo unspecified) | -12.5% | -0.9%
COc1ccc2nc(NC(=O)c3cc(=O)c4ccccc4o3)sc2c1 | -5.6% | -11.5%
N#CSCC(=O)N1c2ccccc2CCc2ccccc21 | ? | -17.4%
CC(=O)c1ccc(C(=O)Nc2nnc(-c3ccc(Cl)cc3)o2)cc1 | -18.5% | -15.2%
COc1ccc(NC(=O)c2c(-c3c(Cl)cccc3Cl)noc2C)c(OC)c1 | -3.8% | -6.6%

Some of the entries so far, with values under each structure:
Each structure is followed by: VACV Venus inh | VACV mCherry inh
COc1ccc(C)cc1Nc1cc(C)nc2nc(C)nn12
→ -24.5% | -27.7%
CN(C(=O)COC(=O)c1cc(=O)[nH]c2ccccc12)c1c(N)n(Cc2ccccc2)c(=O)[nH]c1=O
→ -6.8% | -7.2%
COc1ccc(N(CC(=O)Nc2ccccc2C(=O)N2CCCC2)S(=O)(=O)c2ccccc2)cc1
→ -18.0% | -16.3%

Next part
SMILES | VACV Venus inh | VACV mCherry inh
CCOc1ccc(-c2noc(=O)[nH]2)cc1 | 3.9% | 4.9%
C/C(=N\NC(=O)c1ccc(NS(=O)(=O)c2cccs2)cc1)c1ccc2c(c1)OCO2 | -5.9% | -0.6%
COc1cc(/C=C2/C(=O)N(c3ccc([N+](=O)[O-])cc3)N=C2N2CCOCC2)ccc1O | -1.5% | ?
O=C(/C=C/c1cccc(F)c1)N1CCN(c2ccccn2)CC1 | 1.7% | -9.9%
Cc1nn(-c2ccccc2)c(OC(=O)c2ccccc2Br)c1S(=O)(=O)c1ccccc1 | 0.9% | -8.1%
CS(=O)(=O)NCC(c1ccco1)N1CCN(c2ccccc2)CC1 (stereo unspecified) | -7.8% | -7.2%
Cc1ccc(S(=O)(=O)Nc2ncc(C(F)(F)F)cc2Cl)cc1 | 9.3% | -14.1%
COC(=O)C(C)(C)ONC(=O)Nc1ccccc1 | -0.1% | -8.6%
Cc1ccc(Cl)cc1NS(=O)(=O)c1ccc2oc(=O)c3ncn(C)c3c2c1 | -9.5% | i
COC(=O)C1OC(=O)C2O[C@@]23[C@]2(C)C(OC(C)=O)CC4C(C)(C)C(=O)CC[C@]4(C)C2CC[C@@]13C (stereo partly specified) | ? | -1.4%
CCOC(=O)C1CCN(c2c(NCc3ccc(C(=O)NC4CCCC4)cc3)c(=O)c2=O)CC1 | -2.0% | -4.7%
O=C(Nc1sc2c(c1-c1nc3ccccc3[nH]1)CCCC2)C1CC1 | 4.3% | 7.1%
CCN(CC)CCNC(=O)c1ccc(NC(=O)c2ccc(COc3ccccc3)cc2)cc1 | -19.4% | i
CCN(CC)CCN(C(=O)c1ccc(C(=O)OC)cc1)c1nc2ccc(Cl)cc2s1 | -4.5% | -8.8%
COc1cccc(CNC(=O)COc2cccc(-n3cnnn3)c2)c1 | -2.2% | -14.8%
CC(C)OC(=O)c1cccc(NC(=O)CSc2nnc(N)s2)c1 | -23.0% | -7.9%
CN(C)S(=O)(=O)c1ccc(N2C(=O)CC2(/C=C/c2ccccc2)C(=O)NC2CCCC2)cc1 (stereo unspecified) | -3.5% | -6.6%
Cc1cc(OC(C)C(=O)N(Cc2ccco2)Cc2ccco2)cc(C)c1Cl (stereo unspecified) | -4.6% | 2.1%
COc1ccccc1NC(=O)c1cc2ccccc2o1 | -21.2% | .
Cc1ccc(C(=O)O)cc1-n1c(=O)n(Cc2ccccc2)c(=O)c2[nH]cnc21 | -6.3% | -8.1%
Cc1ccccc1NC(=O)c1ccc(-c2ccc(Cl)cc2Cl)o1 | ? | .
S=C(Nc1ccc(Cl)cc1)NC1CC2CCCC(C1)N2C1CCCC1 (stereo unspecified) | -10.1% | -23.6%
COc1ccc(CCC(=O)NCc2ccc3c(c2)CCN3C(=O)c2ccc(F)cc2)cc1 | -15.9% | i
O=C1C(c2ccc(C(F)(F)F)cc2)=C(Nc2ccc(Cl)cc2)c2ccccc21 | ? | ?
CCOc1ccccc1N1C(=O)NC(=O)C(CCc2ccncc2)(CCc2ccncc2)C1=O | -0.4% | -16.4%

Molecules from the list above that contain fluorine:
SMILES | VACV Venus inh | VACV mCherry inh
O=C(CN1CCN(C(=O)c2cccc(S(=O)(=O)N3CCCC3)c2)CC1)Nc1ccc(F)cc1 | -14.2% | i
O=C(/C=C/c1cccc(F)c1)N1CCN(c2ccccn2)CC1 | 1.7% | -9.9%
Cc1ccc(S(=O)(=O)Nc2ncc(C(F)(F)F)cc2Cl)cc1 | 9.3% | -14.1%
COc1ccc(CCC(=O)NCc2ccc3c(c2)CCN3C(=O)c2ccc(F)cc2)cc1 | -15.9% | i
O=C1C(c2ccc(C(F)(F)F)cc2)=C(Nc2ccc(Cl)cc2)c2ccccc21 | ? | ?

Following part.
SMILES | VACV Venus inh | VACV mCherry inh
Cc1ccc(-c2nnc3ccccc3c2C(=O)Nc2cccc(Cl)c2)cc1 | -4.3% | -7.8%
CCN1CCN(C(=O)C(C)Nc2cc(Cl)c(OC)cc2OC)CC1 (stereo unspecified) | -15.2% | ?
COc1cccc(N2CCN(c3ccc4nnc(CCC(=O)O)n4n3)CC2)c1 | 2.6% | -4.3%
Fc1ccccc1NC(=S)N(CCCN1CCOCC1)Cc1cccnc1 | -9.5% | i
CC(C)(C)S(=O)N1Cc2cc(CO)cc(CCO)c2[C@@H]1CCO (stereo partly specified) | -6.3% | i
O=C(C1CCCCC1)N1C[C@@H](n2cc(-c3ccc(F)cc3)nn2)[C@H](O)C[C@@H]1c1ccc(Cl)cc1 | ? | i
O=[N+]([O-])c1ccccc1OCCCOc1cccc2cccnc12 | 0.3% | ?
Cc1nc2c(-c3ccc(F)cc3)c(C)nn2c(C)c1CCC(=O)N1CCN(c2ccccn2)CC1 | 11.2% | i
CCOc1ccc(S(=O)(=O)NCCN2CCOCC2)c2ccccc12 | -19.8% | -4.7%
COc1ccc(C2CC(=O)Oc3cc(OC)c(OC)c(OC)c32)cc1 (stereo unspecified) | -13.4% | i
CCCOc1ccc(N2CC(C(=O)Nc3ccccc3C(=O)NC)CC2=O)cc1 (stereo unspecified) | -12.7% | 0.9%
O=C(CCCc1ccccc1)Nc1nnc(C(F)(F)F)s1 | -0.1% | -3.0%
Cc1onc(-c2c(F)cccc2Cl)c1C(=O)Nc1ccc(S(=O)(=O)Nc2ncccn2)cc1 | -8.9% | -13.9%
CCOC(=O)N1CCN(C(=O)C(c2ccccc2)c2ccccc2)CC1 | -9.6% | -5.7%
CC(C)(C)NC(=O)NC(=O)COC(=O)c1cc[n+]([O-])cc1 | -12.5% | -5.7%
CC(C(=O)NCc1cccs1)N1CCN(S(=O)(=O)c2ccc3c(c2)OCCCO3)CC1 (stereo unspecified) | -4.8% | -14.9%
O=c1oc(-c2ccccc2NS(=O)(=O)c2ccccc2)nc2ccccc12 | -2.2% | .
Cc1cc2c(cc1C)N(C(=O)CCl)CCN2C(=O)CCl | -6.2% | -20.0%
CCOC(=O)[C@@H]1[C@H]2COc3cc(OC)ccc3[C@@H]2N2C(=O)N(c3cccc(F)c3)C(=O)[C@]12C | -0.5% | i
Cc1ccc(S(=O)(=O)N2CCN(CCc3ccncc3)CC2)cc1 | -0.9% | i
Cc1cccc(C)c1OCC(O)CNC(C)c1ccccc1 (stereo unspecified) | -4.2% | -7.1%
Cc1cc(N2CCN(C(=O)c3ccoc3)CC2)n2nc(-c3ccccc3)cc2n1 | -12.5% | ?
O=C(NCCCN1CCOCC1)c1ccccc1NS(=O)(=O)c1ccc(F)cc1 | 2.3% | -3.2%
CCCC1(C(=O)OCC)NC(c2ccco2)C2C(=O)N(C)C(=O)C21 (stereo unspecified) | -3.7% | -12.9%
O=C(CCc1ccccc1)N1CCc2c([nH]c3ccccc23)C1c1ccc(Cl)cc1 (stereo unspecified) | 3.2% | -8.4%

(further entries)
SMILES | VACV Venus inh | VACV mCherry inh
Nc1nc2c(nc(Br)n2[C@@H]2O[C@@H]3COP(=O)(O)O[C@H]3[C@H]2O)c(=O)[nH]1 | -19.0% | -3.6%
Cc1cc(C(=O)N/N=C/c2cccn2C)n[nH]1 | 10.5% | i
Cc1ccc(S(=O)(=O)CC(=O)N2CCOCC2)cc1 | -9.1% | 0.7%
c1ccc2c(c1)C1=NCCN1c1ccccc1-2 | ? | ?
COc1cc[n+]([O-])cc1[N+](=O)[O-] | 2.2% | i
FCc1nc2nc(Cl)c(Cl)nc2[nH]1 | -11.2% | i
Cc1cccc(-n2cc[nH]c2=S)c1C | -1.8% | -13.8%
COC(=O)c1ccc(CNC(=O)CN(CCC(C)C)S(=O)(=O)c2ccc3c(c2)OCCO3)cc1 | 0.2% | -0.9%
O=C1Nc2ccc3sc4ccccc4c3c2C1=O | -15.5% | -19.3%
O=C1CCC(C(=O)N2CCN(c3ccccc3)CC2)CN1Cc1ccc(Cl)cc1 (stereo unspecified) | -12.7% | -8.2%
CC(C)CCNC(=O)C1C2C=CC3(CN(Cc4ccccc4Cl)C(=O)C13)O2 (stereo unspecified) | -13.8% | -18.5%
Cc1ccc2nc(-c3ccc(SCC(=O)O)nc3)[nH]c2c1 | -10.4% | i
COc1ccc(C(=O)NNC(=O)C(NC(=O)c2ccccc2NC(=O)c2ccco2)C(C)C)cc1 (stereo unspecified) | -1.3% | i
CCN1C(=O)C(O)(CC(=O)C(C)(C)C)c2cc(Br)ccc21 (stereo unspecified) | -9.1% | -5.5%
COc1ccc(-n2c(SCC(=O)O)nc3sc4c(c3c2=O)CCCC4)cc1 | -7.0% | -1.8%
COc1ccc(C(CC(=O)c2ccc(C)cc2)Sc2ccccc2N)cc1 (stereo unspecified) | -2.3% | ?
CCOCCCNC(=O)CN1C(=O)c2c(c3ccccc3n2C)C1c1ccc(OC)cc1 (stereo unspecified) | -6.5% | -6.6%
Cc1ccc(NN=C2c3ccccc3-c3ccccc32)cc1 | -18.9% | -1.2%
CO[C@H]1[C@H](NC(=O)c2ccco2)c2ccccc2C12CCN(Cc1cnc(N(C)C)s1)CC2 | -0.6% | -4.7%
CCCCNC(=O)CN1C(=O)NC(CCc2ccccc2)C1=O (stereo unspecified) | -7.2% | i
COc1cccc(N=Nc2c(=O)[nH]n3c(=O)cc(C)[nH]c23)c1 | -14.7% | .
O=C1C=C(c2cccc(CO)c2)C[C@@H](c2ccc(F)cc2)C1 | -9.4% | -29.9%
Cc1cc(C)c(C)c(S(=O)(=O)N2CCN(c3ncnc4sc(C)c(C)c34)CC2)c1C | -6.2% | -13.5%
O=C1NC(=O)/C(=C\c2ccc(N3CCOCC3)o2)N1 | -13.4% | -9.9%
CCCc1nc2c([nH]1)c(=O)n(C)c(=O)n2C | -12.0% | 0.2%
Cn1cccc1/C=C(\C#N)C(N)=S | -10.2% | -8.2%
CCOC(=O)C1=C(CSc2nc3c(cc2C#N)CN(C)CC3)OC(N)=C(C#N)C1c1ccncc1 (stereo unspecified) | 12.9% | -10.4%
